Menin MLL FP FL: menin-MLL binding inhibition, fluorescein peptide | FP activity change, % at 61.4 µM | AID 1766 | Fluorescence polarization, fluorescein-MLL peptide displacement from menin | 290,000 tested, under 10 active; inconclusive = falling polarisation curve, or a change in total fluorescence; inactive = total fluorescence flat and polarisation flat or rising; no compound was filed as active; the % refers to the polarisation; negative = inhibition;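 also: % of control where 0% means no effect; inhibitors lower the polarisation; unlabelled MLL peptide was the positive control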
ClpP mod: qHTS Assay for Activators of ClpP; AID 651965, 2013; Potency, µM (doses to about 57.5 µM), without a hit: at the highest dose activity change, negative = active; ATP-dependent Clp protease proteolytic subunit (Bacillus subtilis (strain 168)), P80244; purified B. subtilis ClpP, FRET peptide cleavage, 20 min; hit rate 1.9% among 340,000; active = well fitted falling curve with a large enough effect; inconclusive = small, poorly fitted or top-dose-only effect; inactive = no such curve, though single readings can be large or run the other way; also: potency is read from the fitted curve at half-maximal effect; the source files actives as falling curves though it sought activators and does not explain the sign; nearly all actives have a fitted effect of over 65% in size; many hits overshoot -100%
Target sequence (P80244 whole entry, looked up): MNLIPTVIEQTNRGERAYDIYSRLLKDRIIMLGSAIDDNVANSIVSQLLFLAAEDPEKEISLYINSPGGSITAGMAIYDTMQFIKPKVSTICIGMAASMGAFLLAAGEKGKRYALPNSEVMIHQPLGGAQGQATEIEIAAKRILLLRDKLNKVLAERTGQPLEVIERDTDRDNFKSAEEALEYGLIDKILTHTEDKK
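Buffer: 100 mM Tris/HCl pH8, 100 mM KCl, 0.05% low protease BSA, 2.5% glycerol, 0.01% Tween-20. ClpP 10 microg/mL final; 20 min RT; delta FRET normalized to ADEP and DMSO controls.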
TRPV1 PAM: potentiators of human vanilloid receptor 1 (TRPV1). TRPV1-expressing cells, Fluo-8 calcium influx, capsaicin EC20 potentiation; host cell line not named in the record; control for the full effect not named in the record. potentiation, % at 8.33 µM. Q8NER1. hit rate 0.02% among 320,000; active means potentiation above 80%; inconclusive means 30% to 80%; inactive means below 30%; also: 0% is about no effect
Target sequence (Q8NER1 whole entry, looked up): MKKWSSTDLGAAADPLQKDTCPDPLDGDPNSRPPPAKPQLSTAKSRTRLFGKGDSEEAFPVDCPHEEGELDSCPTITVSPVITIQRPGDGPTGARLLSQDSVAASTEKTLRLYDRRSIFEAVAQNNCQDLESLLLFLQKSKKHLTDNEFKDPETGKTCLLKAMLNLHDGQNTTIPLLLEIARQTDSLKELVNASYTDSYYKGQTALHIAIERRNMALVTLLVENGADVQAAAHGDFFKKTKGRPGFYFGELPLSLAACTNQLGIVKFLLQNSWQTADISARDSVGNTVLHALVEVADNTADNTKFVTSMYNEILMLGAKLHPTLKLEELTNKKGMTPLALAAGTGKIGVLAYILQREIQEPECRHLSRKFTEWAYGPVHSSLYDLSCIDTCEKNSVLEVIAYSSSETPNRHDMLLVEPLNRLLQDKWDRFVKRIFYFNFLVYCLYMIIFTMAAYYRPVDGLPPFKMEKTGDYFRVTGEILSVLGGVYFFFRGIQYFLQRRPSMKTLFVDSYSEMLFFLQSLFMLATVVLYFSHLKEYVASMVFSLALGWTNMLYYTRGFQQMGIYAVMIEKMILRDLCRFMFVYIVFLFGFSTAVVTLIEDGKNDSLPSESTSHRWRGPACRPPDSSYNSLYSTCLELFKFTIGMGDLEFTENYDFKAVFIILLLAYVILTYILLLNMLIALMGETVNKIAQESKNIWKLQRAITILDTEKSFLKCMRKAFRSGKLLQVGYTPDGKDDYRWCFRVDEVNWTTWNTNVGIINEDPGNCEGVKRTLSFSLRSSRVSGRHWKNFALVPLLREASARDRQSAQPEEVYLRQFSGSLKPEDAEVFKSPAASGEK
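Fluo-8 calcium influx in TRPV1-expressing cells, kinetic read (ex 480/em 520 nm). Compound added and read 3 min for agonist activity, followed by capsaicin at EC20 final and 2 min further read for enhancement.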
Sfp PPTase inh: blocks B. subtilis Sfp PPTase activity. Biochemical Sfp PPTase activity, qHTS. Potency, µM, for inactives: max response, negative = inhibition, hits mostly inhibitors. hit rate 3.5% among 310,000. AID 1490; active = well fitted inhibition curve with a large enough effect; inconclusive = small, poorly fitted or top-dose-only effect, or another doubt; inactive = no such curve, though single readings can be large or run the other way;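 also: the enzyme is Sfp with the accession as filed and its product quenches rhodamine fluorescence; potency is read from the fitted curve at half-maximal effect; 0% = enzyme reaction without inhibitor and -100% = no enzyme wells; top concentration of the series not given in the record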
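Buffer: 50 mM Hepes-Na pH 7.6, 10 mM MgCl2, 0.01% Nonidet P-40, 0.01% BSA. Enzyme 15 nM, pre-exposed to compound 15 min; substrates then added and fluorescence change tracked over 30 min.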
TRPML1 inh: inhibitors of human TRPML1 channel. Q9GZU1. TRPML1-inducible cells, Ca2+ dye fluorescence, FDSS; hits give low values; inhibition of EC80 agonist-evoked calcium signal. activity change, negative = inhibition, % (no concentration beside the values). hit rate 0.02% among 390,000. AID 624415; in the data active means activity change below about -50%; inconclusive means about -30% to -50%; inactive means above about -30%;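 also: stimulus is agonist 54-4 at its EC80 concentration; % is scaled to controls: 0 for no effect and ±100 for the full control effect; compound concentration not given in the record; the text of the record puts the active cut at -80%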
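Calcium fluorescence in TRPML1-DL cells induced overnight with Tet: a 110 s read after compound pin addition, then a 110 s antagonist read after challenge with 54-4 at 4 uM final (EC80).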
TRPML1 ag: activates the human TRPML1 channel | Q9GZU1 | TRPML1-expressing cells, Ca2+ dye fluorescence, FDSS; host cell line not named in the record; reference of the full effect not given here | activation, % (test concentration not listed) | hit rate 0.12% among 410,000 | AID 624414; in the data active = activation above about 50%; inconclusive = about 30% to 50%; inactive = below about 30%; also: 0% is about no effect; the text of the record puts the active cut at 80%
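Tet-induced TRPML1-DL cells, 1,500 per well, cultured overnight, were loaded with a no-wash Ca2+ dye for 45–90 min. Calcium fluorescence was recorded on the FDSS for 110 s after compound addition, before the EC80 agonist (4 uM 54-4) was added.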
PINK1 expr mod: PINK1 expression modulation | PINK1 immunofluorescence, high-content cytometry, 24 h | Potency, µM (highest dose often 76.6 µM), without a hit: at the top dose activation (PINK1 increase), hits mostly activators | hit rate 0.2% among 410,000 | AID 624263; active = well fitted activation curve with a large enough effect; inconclusive = small, poorly fitted or top-dose-only effect; inactive = flat fitted curve, though single readings scatter; cell line not stated here;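 also: potency is read from the fitted curve at half-maximal effect; % of control where 0% means no effect; nearly all actives have a fitted effect of over 65% in size; a mitochondrial uncoupler was the plate control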
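A stable cell line was treated with compounds at 5 concentrations for 24 hours, with CCCP as control. PINK1 levels and mitochondrial localization were measured by immunofluorescence with mitochondrial, cell and nuclear markers after fixation, read by laser-scanning cytometry.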
Active calls of the source: *; ? = inconclusive; / = no result given; & = joins results of further samples; [ ] = dose if it differs, or a comment. Rows were taken by chance. Share with any hit: about 4.4%.

SMILES	Menin MLL FP FL	ClpP mod	TRPV1 PAM	Sfp PPTase inh	TRPML1 inh	TRPML1 ag	PINK1 expr mod
C=C1CC(COc2cc(=O)oc3ccccc23)(c2ccccc2)OC1=O (configuration not stated)	/	-18%	/	/	14	0.0	0.0%
O=C(C1=C[C@H](c2ccc(Br)cc2)C[C@H](OCCCCO)O1)N1CCOCC1	2.7	0.4%	11	2%	?	0.7	1.0%
O=C(O)CCCCCNC(=O)CCn1cnc2ccccc2c1=O	0.3	-0.4%	-1	6%	3	-0.8	0.9%
CC(=O)Nc1nnc(-c2ccc(Cl)s2)o1	5.4	5.9%	16	-18%	-20	-0.1	0.0%
O=C1CCc2cc(S(=O)(=O)N3CCCC3C(=O)N3CCN(c4ccccc4)CC3)ccc2N1 (configuration not stated)	-0.2	-1.3%	/	11%	5	-0.4	18%
O=c1cc(-c2ccccc2O)nc(-c2ccccc2)[nH]1	/	-0.3%	/	/	-6	-0.7	-2.0%
CCCOc1cccc(C(=O)Nc2ccccc2C(=O)N2CCN(C)CC2)c1	/	0.6%	-3	4%	-5	-0.1	1.4%
COC(=O)c1ccccc1OCC(=O)N1CCN(c2ccc(F)cc2)CC1	-4.7	-2.8%	/	-1%	-12	1.3	-1.8%
CC(=O)c1ccc(NC(=O)CSc2nnc(N)s2)cc1	/	-0.6%	/	/	-5	0.9	0.2%
S=C(Cc1cccnc1)N1CCOCC1	0.3	-3.1%	-5	-69%	?	0.5	6.3%
COc1cccc(C2C(C(=O)Nc3ccccc3)=C(C)N=c3s/c(=C/c4ccc(OCC(=O)O)cc4)c(=O)n32)c1 (configuration not stated)	/	-1.2%	-1	1%	3	0.0	3.1%
O=C(Nc1cccc2ccccc12)N1CCN(Cc2ccc3c(c2)OCO3)CC1	-0.7	?	-14	8%	6	1.4	15%[38.3 µM]

The last 3 compounds of the section above lead into the next:
SMILES	Menin MLL FP FL	ClpP mod	TRPV1 PAM	Sfp PPTase inh	TRPML1 inh	TRPML1 ag	PINK1 expr mod
S=C(Cc1cccnc1)N1CCOCC1	0.3	-3.1%	-5	-69%	?	0.5	6.3%
COc1cccc(C2C(C(=O)Nc3ccccc3)=C(C)N=c3s/c(=C/c4ccc(OCC(=O)O)cc4)c(=O)n32)c1 (configuration not stated)	/	-1.2%	-1	1%	3	0.0	3.1%
O=C(Nc1cccc2ccccc12)N1CCN(Cc2ccc3c(c2)OCO3)CC1	-0.7	?	-14	8%	6	1.4	15%[38.3 µM]
CCOc1ccccc1NC(=O)CSc1nnc(-c2ccco2)o1	-1.8	-17%	7	1%	17	0.5	/
Cc1ccc(S(=O)(=O)Nc2cccc3c2O[C@H](CN(C)C(=O)Nc2ccc(C(F)(F)F)cc2)[C@@H](C)CN([C@H](C)CO)C3=O)cc1	/	4.1%	/	/	-3	0.4	2.9%
O=C(NCc1ccccn1)C(=O)NCC1OCCCN1S(=O)(=O)c1cc(F)ccc1F (configuration not stated)	/	-2.6%	28	-5%	-7	0.7	0.3%
CCN(CC)CCn1c(=S)[nH]c2cc(C(=O)N3CC(C)CC(C)C3)ccc2c1=O (configuration not stated)	/	-0.7%	3	11%	24	-0.4	-0.4%
COc1cc(C(=O)OCC(=O)Nc2cc(C)on2)ccc1OCc1ccccc1Cl	1.3	-1.7%	?	-11%	-2	0.5	0.2%
CCN1C(=O)[C@H]2[C@@H](c3ccc(-c4ccc(OC)cc4)cc3)N3CCCC[C@@]3(C(=O)OC)[C@H]2C1=O	/	-22%	?	/	16	-0.3	1.6%
Cc1ccc(C(=O)c2cc3c(cc2[N+](=O)[O-])OCCO3)cc1	4.3	1.1%	4	-16%	10	0.1	1.0%
CN(C)S(=O)(=O)c1ccc(C(=O)NCC(C)(C)CN=C2NS(=O)(=O)c3ccccc32)cc1	0.6	/	0	19%	9	-0.6	2.2%
CCOc1ccccc1NC(=O)CN(C)S(=O)(=O)c1ccc2nc(C)sc2c1	/	-11%	/	/	-6	1.7	0.8%
CCOP(=O)(OCC)/C(=N/OC(=O)c1cccc([N+](=O)[O-])c1)C(N)=O	4.0	/	-6	10%	5	1.4	0.6%
Cc1ccc(S(=O)(=O)NCCCCCCNS(=O)(=O)c2ccc(C)cc2)cc1	/	1.4%	/	/	18	1.5	1.0%
Cc1nc2nc(SCC(=O)NCc3ccccc3)nn2c(C)c1Cc1ccccc1	/	-1.3%	/	/	5	-0.6	5.4%
COc1ccc(N2CCN(C(CNS(=O)(=O)c3ccc4c(c3)OCCO4)c3ccco3)CC2)cc1 (configuration not stated)	3.9	-3.7%	1	8%	14	0.5	-0.1%
COC(c1ccc(Cl)cc1)(c1ccc(Cl)cc1)C(Oc1nccc(C)n1)C(=O)O (configuration not stated)	6.7	-0.9%	-14	28%	59	-0.1	-0.5%
COc1ccc(NC(=O)CSc2nc3c([nH]c4ccccc43)c(=O)n2C)cc1	-1.0	-13%&-4.0%	5	11%	-2&19	-0.6&-0.5	2.7%&2.0%
Nc1nonc1C(=O)NCCNS(=O)(=O)c1ccc(F)cc1	2.1	-1.2%	8	27%	-1	-0.2	0.4%
C#CC[N+](C)(C)CCCCCCCC	3.4	1.4%	-7	2%	-1	-0.2	2.8%
Cc1cc(C(=O)Nc2ccccc2)c(C)o1	7.3	-0.1%	5	4%	5	1.4	-0.6%
COc1ccc(C(=O)N2c3ccccc3CC2C)cc1OC (configuration not stated)	2.1	1.0%	3	13%	-1	-1.1	-1.0%
Cc1sc(NC(=O)CSc2ncn(-c3ccccc3)n2)nc1-c1ccccc1	0.2	-2.5%	10	-8%	5	0.7	2.8%
COc1cccc(NS(=O)(=O)NC(=O)c2cn(C)c3ccccc23)c1	0.4	-1.0%	5	9%	-15	0.2	-1.5%
O=C(O)c1cnc2ccccc2n1	-5.3	1.3%	-8	-18%	-20	-0.6	1.2%
CCc1cc(C(=O)NN2C(=O)NC3(CCCCC3)C2=O)sc1C	/	-3.6%	8	/	-27	-0.3	-1.2%
Cc1noc(C)c1S(=O)(=O)N1CCN(c2ccccc2Cl)CC1	/	1.0%	8	/	-1	1.6	-0.3%
O=C(Nc1ccnn1C1CCN(C(=O)c2ccc(F)c(Cl)c2)CC1)C1CC1	/	1.6%	-22	18%	3	-0.2	0.8%
Cc1c(C(=O)OCC(=O)Nc2ccccc2OC(F)F)cccc1[N+](=O)[O-]	7.2	1.0%	14	8%	7	0.0	4.0%
Cc1ccc(NC(=S)Nc2cccc3ccccc23)cc1F	-0.7	4.1%	-9	?	2	-0.3	0.1%
CCN(CC)C(=O)C1CCN(c2cc(C)nc3c(-c4ccc(OC)c(OC)c4)c(C)nn23)CC1	/	-2.2%	/	/	-24	-0.6	1.8%
CCOC(=O)c1ccccc1NC(=O)CSC(C)C(=O)Nc1cc(C)on1 (configuration not stated)	/	0.5%	8	/	-1	-0.1	-1.3%
c1ccc(CSc2ncnc3c2oc2ccccc23)cc1	/	-8.9%	/	/	5	4.0	-0.1%
COC(=O)c1ccccc1S(=O)(=O)NCc1nc2nc(C)cc(C)n2n1	0.9	-0.6%	2	10%	-3	0.0	1.6%
Cc1nc2scc(C)n2c(=O)c1S(=O)(=O)NCc1ccc(F)cc1	/	4.6%	23	7%	-17	0.0	5.9%
O=C(Cn1nc(C(=O)O)c2ccccc2c1=O)Nc1cc(C(F)(F)F)ccc1-n1cncn1	/	-0.2%	16	/	-9	-0.3	-0.9%
O=C(Nc1ccccc1N1CCCC1)c1cccc(F)c1	1.3	/	10	12%	4	0.5	-0.7%
Nc1ncc([N+](=O)[O-])c(N2CCCCCC2)n1	-0.9	/	3	5%	0	0.3	-3.7%
COc1ccc(/C=C/C(=O)N(C(C)C)C(C)C)cc1Br	-0.5	-0.2%	-11	8%	11	1.4	1.5%[38.3 µM]

2 compounds from above, limited to TRPML1 inh, TRPV1 PAM and Sfp PPTase inh:
Structure | TRPML1 inh | TRPV1 PAM | Sfp PPTase inh
COC(=O)c1ccccc1S(=O)(=O)NCc1nc2nc(C)cc(C)n2n1 | -3 | 2 | 10%
Cc1nc2scc(C)n2c(=O)c1S(=O)(=O)NCc1ccc(F)cc1 | -17 | 23 | 7%

(listing goes on)
SMILES	Menin MLL FP FL	ClpP mod	TRPV1 PAM	Sfp PPTase inh	TRPML1 inh	TRPML1 ag	PINK1 expr mod
O=C(Nc1ccc2c(c1)OCCO2)c1ccc(Cl)c([N+](=O)[O-])c1	2.8	63%	-13	-8%	4	0.5	-2.1%
CCCCCn1nnc2c(=O)oc3ccccc3c21	-6.8	-2.2%	0	2%	19	1.2	6.4%
COc1ccc2cc3c(N)nn(C(=O)c4ccccc4[N+](=O)[O-])c3nc2c1	-3.2	28µM*	-14	-24%	13	-0.6	2.4%
Nc1cccc(-c2cnc3ccccc3n2)c1	-4.4	1.2%	?	2%	3	-0.7	-1.2%
Cc1ccc(S(=O)c2ccc([N+](=O)[O-])c3nonc23)cc1 (configuration not stated)	/	-2.0%	/	/	-8	11	6.0%
COc1ccccc1C1(O)CCN(CC(=O)Nc2nc(-c3ccccc3)cs2)CC1	0.5	/	7	3%	-4	0.3	-1.2%
O=c1[nH]c2ccccc2n1CCCN1CCCCC1	-0.3	/	3	-1%	-15	-0.6	-0.3%
Cc1onc(-c2ccccc2)c1C(=O)NC(=S)Nc1sc2c(c1C#N)CCC(C)C2 (configuration not stated)	6.4	/	-1	-6%	-16	-0.5	2.7%
CCCN(CCC)CC(O)Cn1cc(/C=C/C(=O)c2ccccc2)c2ccccc21 (configuration not stated)	?	-1.9%	0	-25%	19	1.7	-2.0%
Cc1cccc(Oc2ccc3c(c2)cc(C(=O)O)n3C)c1	5.2	3.8%	10	14%	1	-0.2	1.8%
CC(C)(C)c1ccc(C2=NC(C)(C)N(CC(=O)Nc3ccc(F)c(F)c3)C2=O)cc1	/	0.7%	/	/	-25	0.5	7.6%
Cc1cccc(C)c1-n1c(C)nn(CC#N)c1=O	-3.9	/	-9	15%	-14	0.5	0.9%
CC(C)OCCCNc1ncc2c(n1)CC(c1ccccc1)CC2=O (configuration not stated)	4.6	/	-11	-10%	39	2.2	2.0%
COc1ccc(CC(=O)NCc2nnc(SCc3ccc(C)cc3)n2C)cc1	2.1	/	2	6%	2	-1.1	5.5%
COc1cc(/C=N/NC(=O)Cn2nc([N+](=O)[O-])cc2C)cc(Br)c1OCc1ccccc1	-0.7	0.9%	2	?	6	-0.8	3.5%

Screens (PubChem)
